Screening results as filed in PubChem BioAssay.
Yeast UUG start – yeast start codon fidelity modulation. S. cerevisiae UUG-firefly luciferase reporter, luminescence/redox ratio. activity score, % at 18.7 µM. actives 0.13% (n = 350,000). AID 602363;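 active = replicate mean at a twofold rise or more, about +100% in these data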;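 also: firefly luciferase made from a UUG start codon reports start codon fidelity; reporter light over untreated wells divided by growth signal over untreated wells; some hits fall short of that in this replicate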
Rce1 inhib – yeast Ras-converting enzyme inhibition; yeast membranes, quenched prenylated peptide cleavage fluorescence; calls only; actives 0.27% (n = 290,000);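 active = fall in fluorescence gain of 50% or more versus controls, with final raw signal at or below 3038400; inconclusive = same 50% fall but final raw signal above 3038400; inactive = fall in fluorescence gain under 50%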;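 also: plate controls were neutral control wells for no effect and wells lacking membranes for full effect; tested at 10 µM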
Target sequence (Q03530 whole entry, looked up): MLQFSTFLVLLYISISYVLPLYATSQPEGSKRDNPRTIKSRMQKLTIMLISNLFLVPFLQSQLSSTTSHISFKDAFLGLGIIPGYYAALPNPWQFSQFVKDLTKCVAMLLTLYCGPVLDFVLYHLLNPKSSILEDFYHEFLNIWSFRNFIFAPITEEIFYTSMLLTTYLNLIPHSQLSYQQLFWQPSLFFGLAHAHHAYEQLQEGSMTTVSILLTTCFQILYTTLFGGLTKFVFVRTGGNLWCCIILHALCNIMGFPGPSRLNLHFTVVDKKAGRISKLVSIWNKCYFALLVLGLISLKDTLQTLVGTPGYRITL
eIF4H inh – inhibitors of RNA binding by human eIF4H. Q15056. eIF4H fluorescence polarization binding assay. inhibition, % at 35 µM. actives 0.94% (n = 290,000). AID 2012;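 active = 50% or more with normal probe brightness, or confirmed in later tests; inconclusive = above 50% with abnormal brightness, or retests that disagree; inactive = below 50% or failed in later tests; about a fifth of its hits are not listed in these tables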;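 also: calls also rest on retests at 20 µM and on dose response follow-up; 0% = protein and probe with vehicle and 100% = probe without protein; strong numbers were not always called active; many hits fall short of the cut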
MT1-MMP act inh – inhibitors of human MT1-MMP activation | P50281 | HT1080 RFP-PRO-GFP cells, GFP/RFP ratio fluorescence, overnight; percent of plate control window, DMSO zero | GFP/RFP ratio change, % at 20 µM | actives 0.061% (n = 360,000);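 active = GFP/RFP ratio change of at least 30% with cell ATP level not reduced by more than half and red fluorescence within 50% of control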; also: strong numbers were not always called active
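Assay system: HT1080 RFP-PRO-GFP cells | Dosing: 20 µM single dose, 1% DMSO | Incubation: Cells overnight before dosing, compound overnight, 37 °C, 5% CO2 | Evaluation: GFP/RFP fluorescence ratio | Control set: DMSO-only wells and HT1080 RFP-L50D-GFP cell wells as references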
HIV Env fusion – inhibitors of HIV Env-mediated cell fusion; HeLa-JRFL Env/CEM21 cell fusion, luciferase; inhibition, % at 12.3 µM; actives 1.1% (n = 360,000);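 active = mean replicate inhibition score of at least 50 and every replicate individually at or above 50; inconclusive = only one of the two criteria met; inactive = mean below 50 and not all replicates reaching 50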;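 also: 0% = plate neutral controls and 100% = maraviroc near 300 nM; one replicate is shown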
CSC inhib – blocks cancer stem cells. actives 1.1% (n = 300,000). cancer stem cell-like cells viability, luminescence. inhibition, % at 7.5 µM;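 active = mean at 75% or more and at least half the replicates too; inconclusive = mean and replicates disagree; tested in HMLE shEcad cells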;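 also: 0% = median of negative and 100% = median of positive control wells; the first replicate is given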
PABP polyA inh – PABP-poly(A) binding inhibition | PABP-poly(A) RNA binding, fluorescence polarization | inhibition, % at 35 µM | actives 1% (n = 290,000) | AID 2014;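 active = 50% or more with normal probe brightness, or confirmed in later tests; inconclusive = above 50% with abnormal brightness, or retests that disagree; inactive = below 50% or failed in later tests; about a fifth of its hits are not listed in these tables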;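 also: calls also rest on retests at 20 µM and on dose response follow-up; controls were probe without protein and protein plus probe with vehicle; some compounds called inactive have numbers as strong as hits; many hits fall short of the cut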
Target sequence (P11940 whole entry, looked up): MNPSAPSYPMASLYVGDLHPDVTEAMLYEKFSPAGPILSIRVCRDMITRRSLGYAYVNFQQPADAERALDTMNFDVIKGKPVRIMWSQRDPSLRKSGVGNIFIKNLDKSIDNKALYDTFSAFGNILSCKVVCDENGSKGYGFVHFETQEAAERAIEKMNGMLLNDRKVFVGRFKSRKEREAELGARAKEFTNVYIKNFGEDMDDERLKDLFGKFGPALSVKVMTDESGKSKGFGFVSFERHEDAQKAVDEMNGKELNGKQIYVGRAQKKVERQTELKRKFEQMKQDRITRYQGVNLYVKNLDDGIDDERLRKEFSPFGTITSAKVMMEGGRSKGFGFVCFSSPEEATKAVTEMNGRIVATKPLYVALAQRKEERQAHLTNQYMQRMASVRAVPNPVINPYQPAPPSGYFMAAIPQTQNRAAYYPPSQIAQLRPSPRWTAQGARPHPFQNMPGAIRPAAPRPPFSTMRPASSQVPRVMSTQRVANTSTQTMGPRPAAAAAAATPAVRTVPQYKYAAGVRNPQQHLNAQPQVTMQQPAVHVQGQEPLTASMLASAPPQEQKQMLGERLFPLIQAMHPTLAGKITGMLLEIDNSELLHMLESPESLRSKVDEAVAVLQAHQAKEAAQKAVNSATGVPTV
MT1-MMP act inh RFP – also measured in MT1-MMP act inh; calls as there; RFP signal change, %; measured here: RFP expression control read;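 0 = vehicle wells; hits needed this value within 50% of zero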
Starred values were filed as active, the others as inactive; i = inactive; ? = inconclusive; . = no result given; & = joins results of further samples; [ ] = dose if it differs, or a comment. Only part of the results is shown, so the mix of outcomes need not match the whole.

#1 COc1cccc(N2CCN(C(=O)c3nc4nc(C)cc(C)n4n3)CC2)c1
#2 C[C@@H]1CN([C@H](C)CO)C(=O)CCCn2cc(nn2)CO[C@H]1CN(C)C(=O)Nc1ccccc1F
#3 COc1ccc(C(=O)N2C(=S)NC(=O)/C2=C\c2ccc(C)cc2)cc1
#4 COc1ccc(-c2noc(N3CCCC(C(=O)Nc4ccc(F)cc4F)C3)n2)cc1 (configuration not stated)
#5 COc1cc(OC)cc(C(=O)Nn2cc(C(=O)Nc3c(F)cccc3F)c3ccccc3c2=O)c1
#6 O=C(/C=C/Nc1ccc(Br)cn1)c1cccc(OC(F)F)c1
#7 CCOC(=O)C1=CCN(S(=O)(=O)c2ccc(F)cc2)C1c1cccc(F)c1 (configuration not stated)
#8 COc1cccc(NC(=O)N2CCC(C(=O)Nc3ccc(C)cc3C)CC2)c1
#9 CC(=O)Nc1cccc(C(=O)N/N=C/c2cccc(C)n2)c1
#10 CCC(OC(=O)c1ccco1)C(=O)NCc1ccc2c(c1)OCO2 (configuration not stated)

Compound,1,2,3,4,5,6,7,8,9,10
Yeast UUG start,.,-11&9&-14,.,-5,.,-10,4,-13,-9,-2
Rce1 inhib,i,.,i,i,i,.,.,i,i,i
eIF4H inh,0,.,18,-11,-2,.,.,6,-2,4
MT1-MMP act inh,1,4,-16,-4,2,0,3,0,1,-3
MT1-MMP act inh RFP,5,10,0,-4,5,-3,0,0,1,0
HIV Env fusion,0,7[16.7 µM],-34,.,.,.,-16,-23,-6,-3
CSC inhib,1,.,1,.,-8,67,.,.,-5,-9
PABP polyA inh,-8,.,6,-13,0,.,.,-10,20,9

#11 Cc1ccccc1NC(=O)/C(C#N)=C/c1ccc[nH]1
#12 CCC(C)Nc1nc(Cl)nc(N(C#N)CN2C(=O)c3ccccc3S2(=O)=O)n1 (configuration not stated)
#13 CC(=O)N1CCc2cc(Br)cc(S(=O)(=O)CCC(=O)Nc3c(C)n(C)n(-c4ccccc4)c3=O)c21
#14 O=C(Nc1ccc2nc(-c3ccc(Br)o3)[nH]c2c1)c1ccco1
#15 Clc1ccc(OCCn2cnc3ccccc32)c(Cl)c1
#16 COc1cc(C(=O)NCc2ccc(-c3nc4ccccc4s3)cc2)cc(OC)c1OC
#17 CCOc1ccc(N2CC(C(=O)NCc3nnnn3-c3ccc(C)c(C)c3)CC2=O)cc1 (configuration not stated)
#18 COc1ccccc1CC(=O)N1CCN(S(=O)(=O)c2cccs2)CC1
#19 C[C@H](CO)N1C[C@H](C)[C@@H](CN(C)C(=O)NC2CCCCC2)Oc2c(NC(=O)c3ccncc3)cccc2C1=O
#20 COC(=O)C1=C(C)NC(=O)NC1c1c(O)ccc2ccccc12 (configuration not stated)

Compound,11,12,13,14,15,16,17,18,19,20
Yeast UUG start,-4,.,1,-15,-26,.,-4,-9,-17&-3,6
Rce1 inhib,i,i,i,i,i,i,i,i,.,i
eIF4H inh,5,-21,2,-2,-7,-3,-4,-4,.,-1
MT1-MMP act inh,-7,-1,-3,6,6,3,2,-1,10,-2
MT1-MMP act inh RFP,1,-1,4,-1,-12,0,0,8,4,-3
HIV Env fusion,-48,-36,12,.,.,5,5,-91,9[16.7 µM],1
CSC inhib,-8,6,.,6,-2,17,-4,1,-3,-7
PABP polyA inh,-2,-4,-8,2,6,-13,8,-4,.,0

#21 COc1ccc(C)cc1NC(=O)CNC(C)C(=O)Nc1ccc(C(C)=O)cc1 (configuration not stated)
#22 CCCCOc1cccc(C(=O)Nc2ccc(S(=O)(=O)Nc3cc(C)on3)cc2)c1
#23 CC1CN(S(=O)(=O)c2ccc(CN3C(=O)c4cccnc4C3=O)cc2)c2ccccc2O1 (configuration not stated)
#24 COC(=O)c1ccccc1N1C(=O)C2C(C1=O)[C@H]1C=C[C@@H]2C1 (some centres not stated)
#25 CCc1ccc(C(=O)C(C)OC(=O)c2cccc(S(=O)(=O)N3CCOCC3)c2)cc1 (configuration not stated)
#26 CCc1n[nH]c(=S)n1/N=C/c1ccc(N(CC)CC)cc1
#27 O=C(CN1CCN(c2ccc(F)cc2)CC1)Nc1ccccc1
#28 COc1ccc(CN2CCN(S(=O)(=O)c3ccccc3)CC2)c(OC)c1OC
#29 CCN(C(=O)CSc1cc(C)c2cccc(C)c2n1)C1CCS(=O)(=O)C1 (configuration not stated)
#30 O=C(Nc1cccc2ccccc12)NC1CCCc2ccccc21 (configuration not stated)

Compound,21,22,23,24,25,26,27,28,29,30
Yeast UUG start,15,-19,-14,-1,-11,-20,-10,.,.,-6
Rce1 inhib,i,i,i,i,i,i,i,i,i,i
eIF4H inh,-6,-10,-10,0,.,-12,3,.,-6,10
MT1-MMP act inh,-1,4,2,6,7,-1,-7,2,4,-1
MT1-MMP act inh RFP,-3,-2,4,3,-7,-3,1,0,4,3
HIV Env fusion,-35,-1,-11,.,-5,-13,11,5,26,-88
CSC inhib,-23,2,-5,4,7,-13,-1,-4,-20,1
PABP polyA inh,-5,11,0,-3,.,9,7,.,5,5

#31 COCCn1c(=O)[nH]c2cc(C(=O)N3CCN(c4cc(C)ccc4C)CC3)ccc2c1=O
#32 O=S(=O)(Nc1ccc(Br)cc1)c1cccc(NS(=O)(=O)c2cccs2)c1
#33 O=C(Nc1ccc(N2CCN(C(=O)c3ccccc3)CC2)cc1)c1ccc2c(c1)OCCO2
#34 CCC(=O)Nc1c(C#N)c2nc3ccccc3nc2n1C1CCCCC1
#35 Cc1ccc(NC(=O)c2cc(N3CCOCC3)nc3ccccc23)cc1
#36 O=C(Nc1ccc(S(=O)(=O)Nc2nccs2)cc1)c1cc(-c2ccncc2)nc2ccccc12
#37 O=C(NCCSc1ccccn1)c1ccc(Cl)cc1Cl
#38 O=C(NC(=S)NCCc1ccccn1)c1ccccc1
#39 Fc1cc(Br)ccc1COc1ccc(-c2nnco2)cc1
#40 COc1ccc(OCCN2CCC(C(=O)NC(c3ccc(OC)cc3)c3ccccn3)CC2)cc1 (configuration not stated)

Compound,31,32,33,34,35,36,37,38,39,40
Yeast UUG start,-14,-11,-7,.,2,.,-17,.,-6,-23
Rce1 inhib,.,.,i,i,i,i,i,i,i,.
eIF4H inh,2,.,6,-12,-2,34,4,-16,-11,.
MT1-MMP act inh,5,2,-11,-2,-13,-12,-4,-3,4,2
MT1-MMP act inh RFP,-5,-2,-26,2,-4,1,-4,3,1,7
HIV Env fusion,-3,-8,.,10,15,14,-55,-25,-39,4
CSC inhib,-3,.,20,-11,22,8,-9,.,-1,.
PABP polyA inh,4,.,-4,-12,-7,10,?,4,-4,.

#41 O=C(N/N=C/c1ccco1)C12CC3CC(CC(C3)C1)C2
#42 O=C(COC(=O)c1ccc(O)cc1)Nc1ccc(S(=O)(=O)N2CCCC2)cc1
#43 Nc1nc(Nc2ccccc2F)nc(NC2CCCCC2)c1[N+](=O)[O-]
#44 CC1CC(=O)Nc2ccccc2N1C(=O)COc1ccccc1C(N)=O (configuration not stated)
#45 Cc1ccc(-n2c(-c3ccccc3)c[n+]3c2CCc2ccccc2-3)c(C)c1
#46 CC(=O)c1cccc(NC(=O)C2CCCN2S(=O)(=O)c2cccc3nsnc23)c1 (configuration not stated)
#47 O=C(OCC(=O)N1CCOCC1)c1cncc(Br)c1
#48 COCCn1nnnc1CN(Cc1ccco1)Cc1cc2cc3c(cc2[nH]c1=O)OCO3
#49 Nc1c(C(=O)NC2CC2)c2nc3ccccc3nc2n1-c1ccc2c(c1)OCO2
#50 Cc1ccc2oc(NC3=NC4(CCCC4)C4=C(CCCC4=O)N3)nc2c1

Compound,41,42,43,44,45,46,47,48,49,50
Yeast UUG start,.,6,-22,15,.,-5,-15,-5,-9,-12
Rce1 inhib,i,.,i,.,i,i,.,i,i,.
eIF4H inh,7,.,-3,.,-9,6,.,22,47,.
MT1-MMP act inh,3,3,3,1,-23,0,-2,-7,-9,-33
MT1-MMP act inh RFP,4,3,1,0,-36,1,-2,4,-4,-36
HIV Env fusion,-15,14,5,4,25,0,-39,-65,.,0
CSC inhib,-11,-15,20,.,28,-9,.,-11,12,.
PABP polyA inh,-4,.,5,.,-5,4,.,12,39,.

Profiles, looked up by structure. Order of values: Yeast UUG start, Rce1 inhib, eIF4H inh, MT1-MMP act inh, MT1-MMP act inh RFP, HIV Env fusion, CSC inhib, PABP polyA inh
`CC1CC(=O)Nc2ccccc2N1C(=O)COc1ccccc1C(N)=O` (configuration not stated) is listed as 15, ., ., 1, 0, 4, ., .
`O=C(N/N=C/c1ccco1)C12CC3CC(CC(C3)C1)C2` is listed as ., i, 7, 3, 4, -15, -11, -4
`CC(=O)c1cccc(NC(=O)C2CCCN2S(=O)(=O)c2cccc3nsnc23)c1` (configuration not stated) is listed as -5, i, 6, 0, 1, 0, -9, 4

Later entries.
#51 COc1ccc(N2CCN(C(=O)CN3C(=O)C4CC=CCC4C3=O)CC2)cc1 (configuration not stated)
#52 Cc1cc2c(cc1C)NC1(C(=O)Nc3ccccc31)C1=C(CC(C)(C)CC1=O)N2 (configuration not stated)
#53 COc1ccc(C(=O)NC(=S)N(C)C2CCCCC2)cc1
#54 Cc1nn(-c2ccc(F)cc2)c(C)c1/C=C/C(=O)N1CCNC(=O)C1
#55 CCOc1ccc(CCN2C(=S)N([C@@H](CC(C)C)CN3CCCC3CN3C(=S)NC[C@@H]3Cc3ccc(O)cc3)C[C@@H]2Cc2ccccc2)cc1 (some centres not stated)
#56 CCCN1CN=C(NS(=O)(=O)c2ccc(C)cc2)NC1
#57 O=C(COC(=O)C1=COCCO1)Nc1cc(Cl)c(Cl)cc1Cl
#58 CCOC(=O)c1ccc(COC(=O)CCc2nc3ccccc3[nH]c2=O)o1
#59 CC(C)Cc1nnc(NC(=O)CSc2nc(O)c(Cc3ccccc3)c(=O)[nH]2)s1
#60 O=C(Nc1ccccc1OCc1ccccc1)c1ccccc1Br

Compound,51,52,53,54,55,56,57,58,59,60
Yeast UUG start,-24,-8,-5,-19,-1,-11,-5,-18,.,-17
Rce1 inhib,i,.,i,i,.,.,.,i,i,i
eIF4H inh,-1,0,1,-12,.,-9,.,-2,-1,-3
MT1-MMP act inh,4,1,2,0,-4,-6,7,0,2,-5
MT1-MMP act inh RFP,3,0,1,2,-11,-7,4,0,5,-6
HIV Env fusion,.,.,-5,8,?,1,.,7,18,12
CSC inhib,-8,.,-19,5,.,-10,2,-14,17,-7
PABP polyA inh,-2,-6,-4,-4,.,1,.,5,-11,1

#61 COc1ccc(C(=O)/C=C2/C(=O)Nc3ccccc32)c(OC)c1
#62 CC(C)(C)NC(=O)c1cccc(NC(=O)c2ccc(NC(=O)c3ccco3)cc2)c1
#63 Fc1ccccc1Cc1noc(CN2CCC(OCc3cccnc3)CC2)n1
#64 O=C(NCc1cccnc1)c1cc([N+](=O)[O-])ccc1N1CCOCC1
#65 CCn1ccnc1C(O)c1cccc(OC)c1 (configuration not stated)
#66 COc1ccc(-c2ccc(C#N)c(SCC(=O)NCCc3ccccc3)n2)cc1OC

Compound,61,62,63,64,65,66
Yeast UUG start,.,.,-26,-4,.,.
Rce1 inhib,i,i,i,i,i,i
eIF4H inh,-6,-9,3,-7,-2,-13
MT1-MMP act inh,0,8,0,-2,1,1
MT1-MMP act inh RFP,-3,-1,-7,5,1,-2
HIV Env fusion,-9,.,16,9,-6,.
CSC inhib,75*,5,-3,-13,-19,7
PABP polyA inh,-4,-3,0,-2,-1,-19
